# VACV mCherry inh – vaccinia inhibition (mCherry reporter) | Vaccinia virus mCherry reporter infection, fluorescence; about a quarter of the inactives have no number | Potency, µM (highest dose often 36.5 µM), for inactives: at the top dose activity change, negative = inhibition, hits mostly inhibitors | 310,000 compounds, 0.63% hits | AID 720579; active = well fitted inhibition curve with a large enough effect; inconclusive = small, poorly fitted or top-dose-only effect; inactive = no such curve, though single readings can be large or run the other way; tested in A549 cells; further: nearly all actives have a fitted effect of over 35% in size; inactives centre near -10
# Vaccinia Venus – inhibitors of vaccinia virus (Venus reporter); Vaccinia virus Venus reporter expression, fluorescence; Potency, µM (top dose mostly 36.5 µM), inactives show at the highest dose activity change, negative = inhibition, actives largely listed as inhibitors; 330,000 compounds, 0.46% hits; active means well fitted inhibition curve with a large enough effect; inconclusive means small, poorly fitted or top-dose-only effect; inactive means no such curve, though single readings can be large or run the other way; tested in A549 cells; further: nearly all actives have a fitted effect of over 30% in size; inactives centre near -10
# An asterisk follows results filed as active; i = inactive; ? = inconclusive; . = no result given; & = joins results of further samples; [ ] = dose if it differs, or a comment. On the % scale 0 is the no-effect control and ±100 the full control effect; potency means the concentration at half of the fitted maximal effect.
# Under each structure – VACV mCherry inh	Vaccinia Venus
> Cc1oc2ncnc(N3CCCCC3)c2c1C(=O)NCC1CCN(Cc2ccccc2F)CC1
  -11%	0%
> CCOC(=O)c1nn(-c2ccc(F)cc2)c(=O)cc1OCC(=O)Nc1ccc(OCC)cc1
  i	-1%
> CN(C)CC#Cc1cncc(C(=O)NNC(=O)Nc2ccc(Cl)cc2)c1
  -1%	-12%
> C/C(=N\Nc1nc(N2CCCCC2)nc(N2CCOCC2)n1)c1cccs1
  -5%	-6%
> COc1cc(O)c(CCO)c2c1C(=O)C[C@@H](C)O2
  9%	-3%
> Cc1csc(=Nc2ccc(S(=O)(=O)N3CCOCC3)cc2)n1Cc1ccco1
  -25%	-2%&-22%
> CC(C)Cn1c(=O)c2ccccc2n2c(CCC(=O)N3CCN(c4ccccc4F)CC3)nnc12
  -27%	-13%
> COc1ccc(N2CCN(C(=O)Cn3cnc4c(cnn4-c4ccc(C)cc4)c3=O)CC2)cc1
  i	-8%
> Cc1ccccc1NC(=O)CSc1nnc(NC(=O)C2CC2)s1
  -3%	-12%
> O=C(Cc1ccc(Cl)cc1)NCC(=O)N1CCC2(CC1)NCCc1[nH]cnc12
  -15%	-9%

# One compound at a time, from the list above:
# CCOC(=O)c1nn(-c2ccc(F)cc2)c(=O)cc1OCC(=O)Nc1ccc(OCC)cc1 across the screens: VACV mCherry inh: i; Vaccinia Venus: -1%
# CN(C)CC#Cc1cncc(C(=O)NNC(=O)Nc2ccc(Cl)cc2)c1 across the screens: VACV mCherry inh: -1%; Vaccinia Venus: -12%

# The listing continues:
# Under each structure – VACV mCherry inh	Vaccinia Venus
> CCCCn1c(=O)[nH]c(=O)c2c1nc(-c1ccc(OCC)cc1)n2CC
  -18%	-4%
> COc1cc(C)nc(NS(=O)(=O)c2ccccc2)n1
  .	-2%
> CCc1cccc2c(C(=O)C(F)(F)F)cn(CC(=O)NCC3CCCO3)c12 (stereo not given)
  i	-7%
> CCOc1ccc(S(=O)(=O)N(CC(=O)NCCc2ccc(OC)c(OC)c2)c2ccccc2)cc1
  ?	?
> C=CCSc1nnc(Cc2c(C)[nH]c3ccccc23)o1
  -20%	-11%
> CC(=O)Nc1cccc(NC(=O)CSc2nc3c(=O)n(C)c(=O)n(C)c3n2C)c1
  -19%	-4%
> Cc1[nH]c2ccc(C(=O)NCCCN3CCCCC3)cc2c1C
  i	-11%
> Cc1ccc(S(=O)(=O)N2C[C@H]3C(=O)C[C@@H](c4ccccc4)N(S(=O)(=O)c4ccc(C)cc4)[C@H]3C[C@H]2c2cccc(C)c2)cc1
  -5%	-6%
> COc1ccc(CC(=O)Nc2cccc(-c3nnc(-c4ccco4)o3)c2)cc1
  -29%	-22%
> COC(=O)c1ccccc1NC(=O)NC1CCCC1
  -1%	4%
> COc1ccc(OCC(=O)c2c[nH]c3ccccc23)cc1
  -7%	-8%
> CCn1c(SCC(=O)OC)nnc1-c1ccncc1
  -4%	1%
> CC(=O)Nc1ccc(NC(=O)c2c(-c3ccccc3Cl)noc2C)cc1
  5%	-2%
> COc1cc2c(cc1OC)C(COc1ccccc1OC)N(C(=O)c1ccccc1OC)CC2 (stereo not given)
  -2%	3%
> CC(C)c1c(C(=O)NCc2cccnc2)cnn1-c1nccc(-c2ccccc2F)n1
  -27%	-23%
> COc1ccccc1Nc1nc(-c2ccc([N+](=O)[O-])cc2)nc2ccccc12
  -7%	0%
> Cc1nn(-c2ccccc2)c2c1C(=O)NC(=O)C(C)(C)C2
  .	-10%
> NC(=S)c1cc2ccc(O)cc2oc1=O
  -21%	-8%
> CC(C)Cc1nn2c(=O)cc(COC(=O)c3cccc(NC(=O)c4cccs4)c3)nc2s1
  i	-13%
> O=[N+]([O-])c1cccc(C=Nc2cc3c(cc2Br)OCCO3)c1
  i	-7%
> COC(=O)[C@@H]1CCCN1S(=O)(=O)Cc1ccccc1
  i	-6%
> COc1ccc(C(=O)N2CCOC2CNC(=O)C(=O)NCc2ccccn2)cc1 (stereo not given)
  i	2%
> COc1nc(N2CCCC2)nc(-n2nnc(C(C)=O)c2C)n1
  -11%	-4%
> OC1CCN(c2c3c(nc4cc(-c5cccc(F)c5)nn24)CCCC3)CC1
  -7%	2%
> CO[C@@H]1[C@@H](OC(N)=O)[C@@H](O)C(Oc2ccc3c(O)c(NC(=O)c4ccc(O)c(CC=C(C)C)c4)c(=O)oc3c2C)OC1(C)C (stereo not given in full)
  -2%	-15%
> CC(=O)OC1N=C(c2ccccc2Cl)c2cc(Br)ccc2NC1=O (stereo not given)
  -6%	15%
> Cc1cc2nc(-c3ccc(F)cc3)c(Cc3ccsc3)n2c(C)c1Br
  -1%	-4%
> O=C1CC2(CCN(S(=O)(=O)c3ccccc3F)CC2)Oc2ccccc21
  -12%	-8%
> C=CCNC(=O)C1CCN(S(=O)(=O)c2ccc(Br)cc2)CC1
  .	-5%
> Cc1ccc(C(=O)OCC(=O)Nc2ncc(Cl)cc2Cl)cc1NC(=O)c1ccco1
  i	1%
> CCN(CC)S(=O)(=O)c1cccc(NC(=O)CNc2cccc(S(=O)(=O)N3CCCC3)c2)c1
  -17%	-30%
> CCc1nn2c(=O)c(S(=O)(=O)Nc3cccc(F)c3)c(C)nc2s1
  -13%&-14%	-12%&-3%
> CCn1c(COc2ccccc2)nc2ccccc21
  ?	-19%
> O=C1CCC[C@@H]2CC(N3CCCCC3)C[C@@H]3CCN1[C@H]23 (stereo not given in full)
  i	-7%
> COc1ccccc1N1CCN(C(c2ccccn2)c2nnnn2C2CCCCC2)CC1 (stereo not given)
  -23%	-7%
> C[C@@]12C(=O)N(Cc3ccc(-c4ccccc4)cc3)CC(=O)N1[C@H](/C=C/c1ccccc1)[C@@H]1C(=O)N(c3ccccc3)C(=O)[C@@H]12
  i	-25%
> COc1ccc(N2CCN(c3nc(Cl)nc(Nc4ccc(F)cc4)n3)CC2)cc1
  -15%	-8%
> COC(=O)C[C@H]1C[C@@H]2c3cc(NC(=O)Nc4ccc(F)cc4)ccc3O[C@@H]2[C@@H](CO)O1
  -14%	-16%
> COc1cccc2sc3cc(C#Cc4ccccn4)ccc3c(=O)c12
  ?	-20%
> Cn1cc(Cl)c(C(=O)NC2CCCCCC2)n1
  2%	3%
> Cc1cc(C)c2nc(SCCC#N)nc(C)c2c1
  -17%	-11%
> Cc1cc(NC(=O)CCC(=O)N(Cc2ccco2)C2(C(=O)NC3CCCC3)CCC(C)CC2)no1 (stereo not given)
  -1%	47%[activator]
> CC(C)C[C@H](NP(=O)(O)O[C@@H]1O[C@@H](C)[C@H](O)[C@@H](O)[C@H]1O)C(=O)N[C@@H](Cc1c[nH]c2ccccc12)C(=O)O
  -11%	-8%
> CCCCOC(=O)c1ccc(NC(=O)c2cc3c(=O)n4cccc(C)c4nc3n2C)cc1
  -2%	-3%
> CCOc1cccc(C2NCc3ccccc3-n3cccc32)c1O (stereo not given)
  .	-5%
> CCC(=O)N(C1=C(NC)C(=O)c2ccccc2C1=O)C(C)C
  ?	?
> Cc1ccc(NC(=O)c2ccccc2OCc2ccc([N+](=O)[O-])cc2)nc1
  -9%	1%
> COc1cc(OC)cc(-c2c(-c3cccs3)c3cc(-c4ccc(OC)nc4)ccc3n2C)c1
  -19%	-13%
> COc1ccc(C(=O)C2=NN(C(C)=O)CC2c2ccco2)cc1 (stereo not given)
  i	0%
> CC1CCc2c(C(=O)Nc3ccc(OC(F)(F)F)cc3)csc2C1 (stereo not given)
  -15%	-9%

# (cont.)
# Under each structure – VACV mCherry inh	Vaccinia Venus
> NC(=O)/C(=N\OC(=O)c1ccco1)c1nc(-c2ccc(Br)cc2)cs1
  -22%	-18%
> Cc1ncn(-c2ccccc2)c1-c1ccccc1
  -9%	-18%
> COC(=O)[C@@H]1C[C@@H](NC(=O)c2cnsn2)CN1Cc1ccc(Cl)cc1
  -20%	-12%
> COc1ccccc1N1CCN(C(=O)c2cccc3c(=O)c(C)c(-c4ccccc4)oc23)CC1
  1%	-18%
> CCOc1cccc(C(=O)Nc2ccc3ccccc3c2)c1
  i	-2%
> CC1(C)CC(=O)N(c2ccc(Cl)cc2Cl)C(=O)C1
  -13%	-11%
> COc1ccc(CN(C(=O)c2ccc(OCC(C)C)cc2)C2CCS(=O)(=O)C2)cc1 (stereo not given)
  -4%	-30%
> COc1ccc(NC(=O)c2ccc(NC(=O)CN(C)CC(=O)Nc3c(C)cccc3C)cc2)cc1
  -11%	-15%
> Cc1ccc(S(=O)(=O)N2C[C@@H](C)[C@]3(C2)[C@H](O)[C@H](OC(=O)Nc2cccs2)C[C@H]2C(=O)N(c4ccccc4)C(=O)[C@H]23)cc1
  -3%	-20%
> Cc1csc(NC(C)c2nc3cc(Cl)c(N4CCCCC4)cc3n2CCOCCO)n1 (stereo not given)
  -2%	-15%

# Copied from the list:
# Entry of `COc1ccc(C(=O)C2=NN(C(C)=O)CC2c2ccco2)cc1` (stereo not given) in Vaccinia Venus: 0%
# Entry of `COc1ccc(CC(=O)Nc2cccc(-c3nnc(-c4ccco4)o3)c2)cc1` in Vaccinia Venus: -22%

# (further entries)
# Under each structure – VACV mCherry inh	Vaccinia Venus
> Cc1ccc(/C=N\NC(=O)c2cc([N+](=O)[O-])cc([N+](=O)[O-])c2)o1
  3%	0%
> COC(=O)c1ccc(COc2cccc3c2CCN(Cc2cccc(C)c2)C3=O)o1
  -28%	-8%
> O=C1CC[C@@H](C(=O)N2CSC[C@H]2C(=O)O)N1
  -6%	-6%
> O=c1[nH][nH]c(-c2ccccc2O)c1C(C[N+](=O)[O-])c1ccc(Br)cc1 (stereo not given)
  -29%	-15%
> COc1ccc(-n2cnnc2SCC(=O)Nc2ccc(C(N)=O)cc2)cc1
  i	-4%
> C=CCNC(=S)Nc1cccc(NC(=S)NCC=C)c1
  i	-19%
> COc1ccc(NS(=O)(=O)c2cccc(C(=O)N(C)Cc3cccs3)c2)cc1
  -11%	-12%
> COc1ccc(OC)c(/C=C/C(=O)OCC(=O)NCc2ccccc2)c1
  i	-15%
> CC(C)OCCCNC(=O)Cn1c(-c2cccs2)cc2cc(F)ccc21
  -1%	-6%
> O=[N+]([O-])c1ccc(N/N=C/c2cn(Cc3ccc(F)cc3)c3ccccc23)nc1
  -8%	-24%
> COc1cccc(C#Cc2c(CO)[nH]c3ccccc23)c1
  -19%	-16%
> C/C(=N\O)c1ccco1
  -4%	-11%
> CCOc1ccccc1NC(=O)Cn1c(=O)n(-c2cccc(C)c2)c(=O)c2c1c1cc(OC)ccc1n2C
  -11%	2%
> Cc1nc2c(-c3ccc(F)cc3)c(C)nn2c(C)c1CCC(=O)NCc1ccco1
  i	-17%
> O=S(=O)(Nc1ccon1)c1ccc(Br)cc1
  i	-4%
> COc1ccc(/C=C(/C#N)c2cccnc2)cc1OC
  i	-18%
> Cc1cc(=O)c(C(=O)O)nn1-c1ccccc1[N+](=O)[O-]
  i	-9%
> Cc1ccc(Nc2c(-c3cccc(Cl)c3)nc3cccc(C)n23)cc1
  -8%	6%
> CCOC(=O)N1CCN(c2cccc(C)c2C)CC1
  -20%	-6%
> Cc1ccc(NC(=O)C2CC(=O)n3c(nc4ccccc43)N2)cc1Cl (stereo not given)
  8%	9%
> CC(C)CNS(=O)(=O)c1cc(C(=O)O)c(Cl)cc1Cl
  -9%	-10%
> C[C@@H](NC(=O)c1coc(=O)c(Br)c1)c1ccccc1
  .	-8%
> CCn1cc(C(=O)NC2CCCC2)c(=O)c2cc(S(=O)(=O)N3CCOCC3)ccc21
  i	-6%
> CC(=O)c1ccc(NC(=O)CSc2nc(=O)n(Cc3ccccn3)c3c2CCC3)cc1
  i	-5%
> COC(=O)c1ccc(C(=O)OC)c(NC(=O)CSCC(=O)O)c1
  i	-10%
> Cc1ccc(-c2cc(C(=O)NCCCN3CCOCC3)c3ccccc3n2)cc1C
  0%	-14%
> CCCCOc1[nH]c2nc(-c3ccco3)n(Cc3ccco3)c(=N)c2c1C#N
  ?	-23%
> COc1ccc(C2CC(=O)N(Cc3ccccc3)c3c2c(C)nn3-c2nc(C)cc(C)n2)c(OC)c1 (stereo not given)
  -6%	-7%
> O=C(CSCc1nc2ccccc2[nH]1)Nc1ccccc1
  -6%	-2%
> COc1ccccc1N1CCN(C2CCCN(C(=O)CN3CCCC3=O)C2)CC1 (stereo not given)
  i	-11%

# Given with tabs: entries from further up.
Compound	VACV mCherry inh	Vaccinia Venus
COC(=O)c1ccc(C(=O)OC)c(NC(=O)CSCC(=O)O)c1	i	-10%
Cc1ccc(-c2cc(C(=O)NCCCN3CCOCC3)c3ccccc3n2)cc1C	0%	-14%

# Next section
# Under each structure – VACV mCherry inh	Vaccinia Venus
> CC(C)C(=O)Nc1cccc(NC(=O)CCN2C(=O)c3ccccc3S2(=O)=O)c1
  -19%	-11%
> O=C(NCCS(=O)(=O)NCc1ccc(F)cc1)c1ccc2c(c1)OCO2
  -11%	-2%
> COc1cccc(OCC(=O)Nc2c3c(nn2-c2ccc(F)cc2)CS(=O)(=O)C3)c1
  i	-14%
> COc1ccc(NC(=O)C2CCCN(S(=O)(=O)c3ccc4[nH]c(=O)ccc4c3)C2)cc1Cl (stereo not given)
  -20%	-13%
> CCN(CC)CCOC(=O)c1ccc(N/C=C(/C#N)c2nc(-c3cccc(OC)c3)cs2)cc1
  -1%	-16%
> Cc1cc(C)cc(NC(=O)C2CCC(CNS(=O)(=O)c3ccc4c(c3)C(C)(C)C(=O)N4C)CC2)c1 (stereo not given)
  ?	?
> CCOc1ccc2nc(N/C(N)=N/C(=S)Nc3cccc(C)c3)nc(C)c2c1
  -7%	-14%
> O=C(O)CCN1C(=O)/C(=C\c2cccc(Oc3ccccc3)c2)SC1=S
  12%	12%
> CC(O)c1nc2ccccc2n1C1CCCCC1 (stereo not given)
  i	-12%
> CCOC(=O)Cc1csc(NC(=O)CSc2nnnn2-c2ccc(CC)cc2)n1
  .	-23%
